# rRNA inh HTS: selective bacterial rRNA inhibition in E. coli. E. coli WT GFP vs humanized-ribosome RFP mutants, fluorescence, 24 h; active compounds read low; DMSO median 0, no signal -100. GFP signal change (wild-type ribosome), % (test concentration not listed). hit rate 1.6% among 350,000. AID 720706;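 active = significant combined selectivity score with lowered wild-type GFP, culture density cut under 30%, mutant RFP and density less affected; inactive = any of these conditions unmet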; also: one replicate is shown; some compounds called inactive have numbers as strong as hits
# rRNA inh HTS OD600: second read-out of rRNA inh HTS, no call of its own (marks repeat the call); OD600 change, %; measured here: OD600 growth;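 optical density of the mix in the first replicate; 0 = DMSO median and -100 = no signal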
# rRNA inh HTS RFP: further read-out of rRNA inh HTS, marked with its call; RFP signal change, %; measured here: RFP humanized mutant strains;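 first replicate; 0 = DMSO median and -100 = no signal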
# * hit, by the source's call; & = joins results of further samples. These rows are one share of the data; count on the stated rates, not on these rows.
Molecule,rRNA inh HTS,rRNA inh HTS OD600,rRNA inh HTS RFP
C[C@H]1CN([C@@H](C)CO)C(=O)c2cccc(N(C)C)c2O[C@@H]1CN(C)Cc1ccccc1,3,16,-2.3
C[C@@H]1CN([C@@H](C)CO)C(=O)c2cc(NS(=O)(=O)c3cn(C)cn3)ccc2O[C@@H](C)CCCCO[C@H]1CN(C)C(=O)Nc1ccc2c(c1)OCO2,1,0,0.3
CCCCn1nnnc1C(c1cc2ccccc2o1)N1CCN(c2ccncc2)CC1 (stereo unspecified),-18,-10,8.7
C[C@H]1CN([C@@H](C)CO)C(=O)c2cc(N(C)C)ccc2O[C@@H]1CN(C)Cc1ccc(-c2ccccc2)cc1,-1,1,-4.5
CC(C)C#Cc1ccc2c(c1)O[C@H](CN(C)C(=O)c1ccccc1)[C@@H](C)CN([C@@H](C)CO)S2(=O)=O,-8,-28,22
C[C@H](CO)N1C[C@H](C)[C@H](CN(C)Cc2ccc(Oc3ccccc3)cc2)Oc2cc(Br)ccc2S1(=O)=O,-2&0,2&-9,2.6&-1.6
CC(C)CC#Cc1ccc([C@@H]2[C@@H](CO)N3CCCCN(S(=O)(=O)Cc4ccccc4)C[C@@H]23)cc1,5,-3,4.7
C[C@H]1CN([C@@H](C)CO)C(=O)Cc2cc(NC(=O)Nc3ccccc3)ccc2O[C@@H]1CN(C)C,2,-4,0.6
N#CC(=C1C=C(Br)C(=NO)C=C1Cl)c1ccc(Cl)cc1,-42,-64,-8.6
C[C@@H]1CCCCO[C@H](CN(C)C(=O)c2ccncc2)[C@@H](C)CN([C@@H](C)CO)C(=O)c2cc(NS(C)(=O)=O)ccc2O1,1,4,-0.2
S=C(NCCCN1CCOCC1)NN=C1c2ccccc2-c2ccccc21,-28,-31,8.2
CCCC(=O)Nc1ccc2c(c1)OC[C@@H](C)N(Cc1cncnc1)C[C@@H](C)[C@H](OC)CN(C)C2=O,0,4,-3.4
CS(=O)(=O)N1CC(=O)N2[C@H](CO)[C@@H](c3ccc(C#CCc4ccccc4)cc3)[C@H]2C1,1,17,-1.8
CCC/C=C/c1ccc(CN2C(C(C)C)C(=O)N(Cc3cn(CCOCOC)nn3)CCS2(=O)=O)cc1 (stereo unspecified),1,6,-2.8
COC(=O)C[C@H]1CC[C@@H]2[C@H](COc3ccc(NC(=O)c4cccs4)cc3C(=O)N2C)O1,-1,-3,1.2
COc1ccc(S(=O)(=O)N2CCC3(CC2)CN(C(=O)CN(C)C)[C@@H](CO)c2c3c3ccc(OC)cc3n2C)cc1,0,0,13
C[C@H](NC(=O)C[C@H]1C=C[C@H](NC(=O)c2cccnc2)[C@H](CO)O1)c1ccccc1,3,3,-0.2
C[C@@H]1CN([C@@H](C)CO)C(=O)Cc2cc(NS(=O)(=O)c3ccc(Cl)cc3)ccc2O[C@H]1CN(C)S(C)(=O)=O,-2,-2,-0.6
C[C@@H]1CN([C@@H](C)CO)C(=O)c2cc(NC(=O)Nc3ccc(F)cc3)ccc2O[C@H]1CN(C)S(=O)(=O)c1ccc(Cl)cc1,-1,-8,0.5
Cc1ccc(S(=O)(=O)Nc2ccc3c(c2)C(=O)N([C@H](C)CO)C[C@H](C)[C@H](CN(C)S(=O)(=O)c2ccc(Cl)cc2)O3)cc1,2,0,1.4

# As entered above:
# In rRNA inh HTS RFP, CCC/C=C/c1ccc(CN2C(C(C)C)C(=O)N(Cc3cn(CCOCOC)nn3)CCS2(=O)=O)cc1 (stereo unspecified) shows -2.8
# In rRNA inh HTS RFP, C[C@H]1CN([C@@H](C)CO)C(=O)c2cc(N(C)C)ccc2O[C@@H]1CN(C)Cc1ccc(-c2ccccc2)cc1 shows -4.5

# 5 entries out of the list above, ordered by the number in rRNA inh HTS, ascending:
molecule,rRNA inh HTS
CC(C)C#Cc1ccc2c(c1)O[C@H](CN(C)C(=O)c1ccccc1)[C@@H](C)CN([C@@H](C)CO)S2(=O)=O,-8
C[C@H]1CN([C@@H](C)CO)C(=O)c2cc(N(C)C)ccc2O[C@@H]1CN(C)Cc1ccc(-c2ccccc2)cc1,-1
CCCC(=O)Nc1ccc2c(c1)OC[C@@H](C)N(Cc1cncnc1)C[C@@H](C)[C@H](OC)CN(C)C2=O,0
C[C@@H]1CN([C@@H](C)CO)C(=O)c2cc(NS(=O)(=O)c3cn(C)cn3)ccc2O[C@@H](C)CCCCO[C@H]1CN(C)C(=O)Nc1ccc2c(c1)OCO2,1
C[C@H]1CN([C@@H](C)CO)C(=O)Cc2cc(NC(=O)Nc3ccccc3)ccc2O[C@@H]1CN(C)C,2

# (cont.)
Molecule,rRNA inh HTS,rRNA inh HTS OD600,rRNA inh HTS RFP
COc1cc(CN2[C@@H]3CNC[C@H]2C3c2ccc(/C=C/c3ccccc3)cc2)cc(OC)c1 (stereo partly specified),-60&-62,-75&-72,-8.4&-15
C[C@H](CO)N1C[C@H](C)[C@H](CN(C)C(=O)N[C@H](C)c2ccccc2)OCc2ccccc2-c2c(n(C)c3ccccc23)C1=O,-7&-3,-8&-3,6.3&2.4
O=C(C[C@H]1CC[C@@H]2[C@H](COC[C@H](O)CN2Cc2ccc(C(F)(F)F)cc2)O1)NCCc1ccccc1,-22,-59,7.2
COc1ccc(S(=O)(=O)Nc2ccc3c(c2)C(=O)N([C@H](C)CO)C[C@@H](C)[C@H](CN(C)C)OCCCC[C@H](C)O3)cc1,3,3,0.0
COc1ccccc1C#Cc1ccc2c(c1)[C@@H]1[C@@H](CCN1C(=O)Cc1ccccc1)[C@@H](CO)N2,-5,-3,16
Cc1c(C(=O)NC2CC(C)(C)NC(C)(C)C2)oc2c(Cl)cccc12,-3,-1,-0.8
Cc1noc(C)c1S(=O)(=O)Nc1ccc2c(c1)C(=O)N([C@H](C)CO)C[C@@H](C)[C@@H](CN(C)S(=O)(=O)c1cn(C)cn1)OCCCC[C@H](C)O2,2,3,-0.4
CO[C@H]1CN(C)C(=O)c2ccc(NS(C)(=O)=O)cc2OC[C@H](C)N(C(=O)C2CCC2)C[C@@H]1C,1,-1,-2.2
COc1ccc(CN(C)C[C@H]2OCCCC[C@H](C)Oc3ccc(NC(=O)NC4CCCCC4)cc3C(=O)N([C@H](C)CO)C[C@H]2C)cc1,-1,-6,2.2
NC(Cc1ccc(C(F)(F)F)cc1)c1csc(Nc2nccc(C(F)(F)F)n2)n1 (stereo unspecified),-59,-84,-21
COc1ccc2c3c([nH]c2c1)[C@@H](CO)N(C(=O)NC(C)C)CC31CN(C(=O)NC(C)C)C1,2,7,-2.4
CCCC(=O)N1CCC2(CC1)CN(Cc1ccccc1F)[C@@H](CO)c1c2c2ccc(OC)cc2n1C,0,-10,-1.7
CNC[C@@H]1OCCCC[C@@H](C)Oc2ccc(N)cc2C(=O)N([C@H](C)CO)C[C@H]1C,4,10,0.5
CN(C)CC(=O)N1[C@H](C#N)[C@H](c2ccc(-c3cccc(C(=O)N(C)C)c3)cc2)[C@@H]1CO,0,2,0.2
C[C@H]1[C@@H](Cc2cc(Cl)cc(Cl)c2)N(c2ccccc2)c2ccccc2CN1Cc1ccccc1,-16,-65,6.6
O=C(Nc1ccccc1)N1CCCCN2[C@@H](CO)[C@H](c3ccc(Br)cc3)[C@@H]2C1,-23*,-10*,-0.7*
COC(=O)c1ccc2nc(-c3ccccc3)c(Cc3ccc(C)cc3)n2c1,-27*,-21*,4.0*
C[C@H](CO)N1C[C@H](C)[C@@H](CN(C)C(=O)CN(C)C)Oc2ncc(C#CC(C)(C)O)cc2C1=O,8,14,-0.9
CCCN(C)C[C@@H]1OCCCC[C@H](C)Oc2ccc(NC(=O)CCCN(C)C)cc2C(=O)N([C@@H](C)CO)C[C@@H]1C,4,2,-0.8
O=C(C[C@H]1C=C[C@H](NC(=O)C2CCC2)[C@@H](CO)O1)NCCCN1CCOCC1,3,0,-1.0

# The last 2 entries of the part above are carried over, then new ones follow.
Molecule,rRNA inh HTS,rRNA inh HTS OD600,rRNA inh HTS RFP
CCCN(C)C[C@@H]1OCCCC[C@H](C)Oc2ccc(NC(=O)CCCN(C)C)cc2C(=O)N([C@@H](C)CO)C[C@@H]1C,4,2,-0.8
O=C(C[C@H]1C=C[C@H](NC(=O)C2CCC2)[C@@H](CO)O1)NCCCN1CCOCC1,3,0,-1.0
O=C(C[C@@H]1C[C@H]2c3cc(NC(=O)C4CCOCC4)ccc3O[C@H]2[C@@H](CO)O1)NCc1cccnc1,-1,3,-1.3
C[C@@H]1CN([C@H](C)CO)C(=O)c2cc(NC(=O)Cc3ccccc3)ccc2O[C@@H](C)CCCCO[C@H]1CN(C)C(=O)Cc1ccccc1,-1,-11,2.5
C[C@@H]1CN([C@H](C)CO)C(=O)Cc2cc(NC(=O)Nc3ccc(F)cc3)ccc2O[C@H]1CN(C)S(=O)(=O)c1ccc(F)cc1,-4,-5,1.4
C[C@H](NC(=O)C[C@@H]1C=C[C@@H](NC(=O)Cc2ccccn2)[C@@H](CO)O1)c1ccccc1,1,1,-1.0
CO[C@@H](CN(C)S(=O)(=O)c1ccc(F)cc1)[C@H](C)CN(Cc1ccccc1Cl)[C@@H](C)CO,-2,-9,1.6
CCC(=O)N(C)C[C@H]1Oc2cc(-c3cccc(OC)c3)ccc2S(=O)(=O)N([C@H](C)CO)C[C@H]1C,-9,-9,0.6
C[C@H](CO)N1C[C@H](C)[C@H](CN(C)Cc2ccccc2)Oc2ccc(NC(=O)C3CCCCC3)cc2CC1=O,-3,-3,-0.1
CC(C)C#Cc1ccc2c(c1)O[C@@H](CN(C)C(=O)Cc1ccccn1)[C@H](C)CN([C@H](C)CO)S2(=O)=O,2,-5,-0.4
O=C(C[C@H]1CC[C@@H]2[C@H](COC[C@H](O)CN2Cc2ccccc2)O1)NCCCN1CCOCC1,1,10,-1.7
Cc1noc(C)c1NC(=O)Nc1cccc2c1O[C@@H](CN(C)Cc1ccccc1)[C@H](C)CN([C@@H](C)CO)C2=O,0,0,-1.1
C[C@H]1CN([C@@H](C)CO)C(=O)c2cc(C#CC(C)(C)O)cnc2O[C@H]1CN(C)Cc1cncnc1,5,11,-0.4
C[C@H](CO)N1C[C@H](C)[C@H](CN(C)Cc2ccc(O)cc2)OCc2cn(nn2)CCCC1=O,0,4,-4.2
C[C@@H]1CN([C@@H](C)CO)C(=O)c2cc(C#CCN(C)C)cnc2O[C@H]1CN(C)C(=O)c1cccc(F)c1,4,3,2.8
CCOC(=O)c1cc2ccccc2n1C1CCN(CCc2ccccc2)CC1,-36,-58,-6.7
CN1CCN(C(=O)C[C@H]2CC[C@@H]3[C@H](COC[C@@H](O)CN3CC3CCOCC3)O2)CC1,9,10,-3.5
CC(=O)N[C@@H]1C=C[C@H](CC(=O)NCC2CCCCC2)O[C@H]1CO,0,10,0.7
CCCNC(=O)Nc1ccc2c(c1)C(=O)N(C)C[C@@H](OC)[C@@H](C)CN(C(=O)C1CCCCC1)[C@H](C)CO2,-2,1,1.0
CC1(C(=O)NS(=O)(=O)c2ccc3ccccc3c2)CCN1C(=O)Cc1ccc(-c2ccccc2)cc1 (stereo unspecified),-17,-19,-2.5
O=C(c1cccnc1)N1CC2(C1)[C@H](c1ccccc1)[C@H](CO)N2C(=O)c1cccnc1,4,-2,-2.3
C[C@H](CO)N1C[C@H](C)[C@H](CN(C)S(C)(=O)=O)Oc2c(NC(=O)C3CC3)cccc2C1=O,4,-2,-0.2

# Continued:
Molecule,rRNA inh HTS,rRNA inh HTS OD600,rRNA inh HTS RFP
CCCNC(=O)Nc1ccc2c(c1)C(=O)N(C)[C@@H]1CC[C@@H](CC(=O)O)O[C@H]1CO2,5,10,-1.0
COc1ccc(C#Cc2ccc([C@@H]3[C@@H](CO)N4C(=O)CN(C(=O)NC(C)C)C[C@H]34)cc2)cc1,3,-7,3.2
CN(C)C(=O)c1ccc(-c2ccc(C3[C@H]4CNC[C@@H]3N4S(=O)(=O)c3ccc(Cl)cc3)cc2)cc1 (stereo partly specified),-6,3,6.4
COCC#Cc1ccc2c(c1)O[C@@H](CN(C)Cc1cncnc1)[C@H](C)CN([C@@H](C)CO)S2(=O)=O,-2,-7,-4.1
C[C@H]1CN([C@@H](C)CO)C(=O)Cc2cc(NC(=O)C3CCCCC3)ccc2O[C@@H]1CN(C)C(=O)Nc1ccc2c(c1)OCO2,-5,2,-3.7
O=C(NCCN1CCCCC1)[C@H]1[C@H](CO)[C@H]2Cn3c(cccc3=O)[C@@H]1N2C(=O)C1CC1,4,6,-1.6
CCC(=O)c1cn(CC(=O)Nc2ccc(F)cc2)c2ccccc12,-5,-19,13
CCCNC(=O)N[C@H]1C=C[C@H](CC(=O)NC2CCCCC2)O[C@H]1CO,1,3,-1.6
N#Cc1cccc(-c2ccc([C@H]3[C@@H](CO)N4CCCCN(Cc5ccccc5F)C[C@@H]34)cc2)c1,-10,-30,8.0
O=C(Nc1ccc(Cl)cc1)N[C@H]1CC[C@H](CCn2cc(Cc3ccccc3)nn2)O[C@H]1CO,-5,-5,0.0
C[C@@H]1CCCCO[C@H](CN(C)C(=O)NC2CCCCC2)[C@H](C)CN([C@@H](C)CO)C(=O)c2cc(NS(=O)(=O)c3cccs3)ccc2O1,-5,-14,2.4
C[C@H]1CN([C@@H](C)CO)C(=O)Cc2cc(NC(=O)Cc3cn(C)c4ccccc34)ccc2O[C@H]1CN(C)C(=O)Nc1ccccc1,-1,5,-0.2
C[C@@H]1CN([C@@H](C)CO)C(=O)Cc2cc(NC(=O)Cn3cnnn3)ccc2O[C@H]1CN(C)S(=O)(=O)c1ccc(Cl)cc1,1,1,0.3
Cc1ccc(-c2cnc3c(c2)C(=O)N([C@@H](C)CO)C[C@H](C)[C@@H](CN(C)C(=O)Cc2ccccc2)O3)cc1,-5,0,2.1
CC(C)n1ncc2c(C(=O)Nc3ccccc3SCC(N)=O)cc(C3CC3)nc21,-15,-41,-7.8
O=C(C[C@@H]1C=C[C@@H](NS(=O)(=O)c2ccccc2)[C@H](CO)O1)N1CCN(c2ccccc2)CC1,1,11,-4.0
N#Cc1ccc(-c2ccc(C3[C@@H]4CN(C(=O)c5cccnc5)C[C@H]3N4)cc2)cc1 (stereo partly specified),1&2,7&7,-3.0&-0.3
